Vaccinia Venus: qHTS for Stage-Specific Inhibitors of Vaccinia Orthopoxvirus: Venus Reporter Primary qHTS. hit rate 0.46% among 330,000. Potency, µM (highest dose often 36.5 µM), for inactives: at the highest dose activity change, negative = inhibition, actives largely listed as inhibitors. Vaccinia virus Venus reporter expression, fluorescence; active means well fitted inhibition curve with a large enough effect; inconclusive means small, poorly fitted or top-dose-only effect; inactive means no such curve, though single readings can be large or run the other way; tested in A549 cells; also: nearly all actives have a fitted effect of over 30% in size; inactives centre near -10
Vaccinia mCherry: qHTS for Stage-Specific Inhibitors of Vaccinia Orthopoxvirus: mCherry Reporter Primary qHTS; Vaccinia virus mCherry reporter infection, fluorescence; about a quarter of the inactives have no number; Potency, µM (doses to about 36.5 µM), inactives show top-dose activity change, negative = inhibition, most hits filed as inhibitors; hit rate 0.63% among 310,000; AID 720579, 2013; active = well fitted inhibition curve with a large enough effect; inconclusive = small, poorly fitted or top-dose-only effect; inactive = no such curve, though single readings can be large or run the other way; tested in A549 cells; also: nearly all actives have a fitted effect of over 35% in size; inactives centre near -10
* = called active by the depositor; i = inactive; ? = inconclusive; nt = not tested or not shown; & = joins results of further samples; [ ] = another dose, or the depositor's remark. % is scaled to controls: 0 for no effect and ±100 for the full control effect; potency is read from the fitted curve at half-maximal effect. Rows were taken by chance; any-hit rate near 0.88%.

SMILES	Vaccinia Venus	Vaccinia mCherry
Cc1ccc(-c2nnc(-c3ccc4c(c3)OCO4)o2)cc1	-1%	i
CCCS(=O)(=O)Nc1ccc(Nc2c3ccccc3nc3ccccc23)c(OC)c1	?	?
CNC(=S)N(C)c1ccccc1	-2%	i
O=C(Cc1ccc(Cl)cc1)Nc1ccc(NC(=O)c2ccccc2)cc1	-9%	-14%
NC1=NS(=O)(=O)NC1c1ccc(F)cc1 (stereo not drawn)	-6%	-23%
CCc1cccc(C)c1NC(=O)COC(=O)Cc1ccccc1	-6%	i
O=C(COc1ccccc1)Nc1nnc(S(=O)(=O)N2CCCCCC2)s1	-15%&-8%	0%&-9%
COc1ccccc1C1CCN(c2ccc(CO)cc2[N+](=O)[O-])CC1	5%	?
CC(C)(C)N(Cc1ccccc1)C(=O)c1ccc2c(c1)OCCO2	-1%	-1%
CCOc1ccc(OCC)c(S(=O)(=O)NNC(=O)c2c(C)nc3ccccn23)c1	-19%	i
COc1ccc(CCNC(=O)Cn2nnc(-c3cccs3)n2)cc1OC	-11%	-3%
CC1(C)CC(=O)C=C(NCCN2CCN(C(=O)Cc3ccc(Cl)cc3)CC2)C1	-6%	nt
CC(C)(CNC(=O)c1cnn(-c2nccc(-c3cccs3)n2)c1C1CC1)N1CCOCC1	-8%	-11%
COc1cc(CCNC2=CC(=O)c3ncccc3C2=O)ccc1O	10µM*	10µM*
O=C1C(=NO)CC(c2ccccc2)N1c1ccccc1 (stereo not drawn)	-11%	-8%
Nc1cccnc1Oc1ccc(F)cc1F	-11%	-14%
N#Cc1cccc(NC(=O)COC(=O)CCc2ccc(S(=O)(=O)N3CCOCC3)cc2)c1	-7%	i
CCOc1ccc(S(=O)(=O)N(CC)CC(=O)NCc2ccncc2)cc1	-12%	-3%
Cc1ccc2c(CC(=O)N3CCN(S(=O)(=O)c4cccs4)CC3)coc2c1	-15%	nt
CCN(CC)c1ccc(/C=C2/C(=O)NC(=O)N(CC3CCCO3)C2=O)cc1 (stereo not drawn)	-1%	-13%
CN(Cc1cc2cc(F)ccc2[nH]1)Cc1nc(-c2cnccn2)no1	-19%	-18%
CCN(CC)c1ccc(NC(=O)CN2CCN(S(=O)(=O)c3ccc(C(C)C)cc3)CC2)cc1	-26%	?
COc1cc(/C=N/Nc2ccccn2)ccc1O	-15%	-24%
COc1ccc(CNC(=O)C2(CC3CC(c4ccccc4)=NO3)CCN(C(=O)c3cccc(O)c3)CC2)cc1 (stereo not drawn)	-17%	0%
c1ccc(Cn2c(-c3ccco3)nc3nc4ccccc4nc32)cc1	-26%	-8%
CCC(Oc1ccccc1)C(=O)Nc1ccc(OCc2cc(=O)n3ccc(C)cc3n2)cc1 (stereo not drawn)	-18%	-21%
CCOc1ccc(Nc2nc(N)c([N+](=O)[O-])c(NCc3ccccc3)n2)cc1	-15%[7.34 µM]	i[7.34 µM]
CCc1c(C)sc2c1CCN(Cc1ccc(C#N)cc1)C2c1ccccc1 (stereo not drawn)	16%	-5%
CC(C)Oc1ccc(C(=O)/C(=C\c2cccs2)c2nc3ccccc3o2)cc1	5%	-5%
CCOC(=O)c1ccc(N(CC(=O)NC2CCCCC2)C(=O)CNC(=O)c2ccco2)cc1	-1%	-1%
Cn1nc(-c2ccccc2)cc1NS(=O)(=O)c1ccc(C#N)cc1	1%[7.34 µM]	i[7.34 µM]
Nc1nc(N)nc(-c2ccc([N+](=O)[O-])o2)n1	?	-29%
COc1ccc(N(CC2CO2)S(=O)(=O)c2ccccc2)cc1 (stereo not drawn)	-13%	-10%
CCc1ccc(-n2c(=O)c3c(C)c(C(=O)N(C)C)sc3n(Cc3cccc(C)c3)c2=O)cc1	-11%	-4%
O=C(Nc1ncccc1O)c1ccc2ccccc2c1	-20%	-14%
CC(C)Cn1c(=O)c2ccccc2n2c(CCC(=O)NCc3ccc(Cl)cc3)nnc12	-13%	i
CNC(=S)N1CCN(C(=O)C2CCCO2)CC1 (stereo not drawn)	1%	-6%
N#Cc1nc(N)nc(N(c2ccccc2)c2ccccc2)n1	-12%&-16%	25%&-12%
Cc1ccc(NC(=O)c2c(C)oc3ccc(O)c(CN4CCN(Cc5ccccc5)CC4)c23)cc1	0%	-18%
CCC1=C2CC[C@H]3C(=O)N(C)C(=O)[C@H]3[C@H]2[C@@]2(Cc3ccccc3)C(=NCCOC)OC(=O)N2C1=O	-12%	-21%
CC(CN1CCOCC1)OC(=O)c1ccc(Br)cc1 (stereo not drawn)	17%	nt
O=C(OCCN1CCN(C2=NS(=O)(=O)c3ccccc32)CC1)c1cccc(Br)c1	-10%	-3%
COc1ccccc1C(=O)C1CCCN(C(=O)c2ccccn2)C1 (stereo not drawn)	4%	-1%
O=C1c2ccccc2-c2c1cccc2C(=O)N(CCO)CCO	-10%	-13%
Cc1cccc(C(=O)NNC(=O)c2ccco2)c1O	-18%	?
Cc1cccc(NC(=O)C2C(c3ccccc3)C2(Cl)Cl)c1C (stereo not drawn)	-29%	?
Fc1ccc(C(NCCc2ccc(Cl)cc2)c2nnc(-c3ccccc3)o2)c(Cl)c1 (stereo not drawn)	-4%	-10%
CCn1c(CCC(=O)O)nc2cc(S(=O)(=O)N(C)C)ccc21	-6%	i
CC1c2ccccc2-n2nncc2CN1C (stereo not drawn)	-5%	-8%
CCOc1ccc(C(=O)NCC(=O)OCC(=O)Nc2ccc(C)c(S(=O)(=O)N(C)C)c2)cc1	-16%	i
Next entries.
SMILES	Vaccinia Venus	Vaccinia mCherry
CC(=O)Nc1cccc(NS(=O)(=O)c2cccc3nsnc23)c1	-21%	nt
COCCN(C(=O)COC(=O)c1ccc(C)o1)c1c(N)n(Cc2ccccc2)c(=O)[nH]c1=O	-3%	-13%
Cc1ccc(OCC(=O)NNC(=O)C2CCN(c3ncnc4sc(C)c(C)c34)CC2)cc1	-16%	i
Cc1cccc(C)c1NC(=O)CN1CCC(Cc2ccccc2)CC1	7%	52%[activator]
CCOC(=O)c1c(-c2ccc(C)cc2)csc1NC(=O)C1CCCO1 (stereo not drawn)	-11%	i
Cc1nc2ccc(NS(=O)(=O)c3ccc(F)cc3F)cc2s1	-18%	-22%
Cc1nnc(C)c2c(C)n(C(C)c3ccccc3)c(C)c12 (stereo not drawn)	-24%	-21%
O=C(CSc1ccc(-c2ccccn2)nn1)N1CCCC1	10%	-8%
CC(=O)c1cccc(NC(=O)C(C)OC(=O)c2ccc(-n3cnnn3)cc2)c1 (stereo not drawn)	-11%	-16%
CS(=O)(=O)N(CC(=O)N1CCCCC1)c1ccc2c(c1)OCO2	-14%	-14%
COC(=O)CSc1nnc(CNC(=O)c2ccccc2F)n1-c1ccc(F)cc1	-21%	-6%
O=Nc1c(O)[nH]c2ccc(Cl)c(Cl)c12	?	14µM*
C=CCN(c1ccccc1)S(=O)(=O)c1ccc(Cl)c(C(=O)OCC(=O)c2[nH]c(C)c(C(C)=O)c2C)c1	-10%	-17%
COc1ccc2c(c1)CCc1c(C(=O)Nc3ccc(F)c(Cl)c3)noc1-2	-3%	-9%
Cc1ccc(S(=O)(=O)N2CCN(C(=O)C3CCCCC3)CC2)cc1	2%	-21%
O=C(O)CSc1ncnc2sc3c(c12)CCCC3	-4%	i
COc1cccc(-c2ccc(C#N)c(=O)[nH]2)c1	11%	-23%
COc1ccc(NC(=O)CSCC(=O)N(C)Cc2cccc(OC)c2OC)cc1	-6%	-15%
CC(=O)NCCCc1ccc(C(=O)COC(=O)CNC(=O)c2ccc3ccccc3c2)cc1	-9%	-6%
CCCCn1c(=O)c(C=Nc2cc([N+](=O)[O-])ccc2OC)c(O)n(CCCCl)c1=O	-17%	i

One compound at a time, as listed above. Screens in order: Vaccinia Venus	Vaccinia mCherry
Profile of Cc1ccc(S(=O)(=O)N2CCN(C(=O)C3CCCCC3)CC2)cc1 : 2%	-21%
Profile of CC(=O)NCCCc1ccc(C(=O)COC(=O)CNC(=O)c2ccc3ccccc3c2)cc1 : -9%	-6%
Profile of COC(=O)CSc1nnc(CNC(=O)c2ccccc2F)n1-c1ccc(F)cc1 : -21%	-6%

The list continues.
SMILES	Vaccinia Venus	Vaccinia mCherry
CC(=O)Nc1ccc(N/C(C)=C/C(=O)c2cccnc2)cc1	-11%	4%
Nc1ncnc2c1ncn2[C@@H]1O[C@H](C(=O)Nc2cc(C(F)(F)F)cc(C(F)(F)F)c2)[C@@H](O)[C@H]1O	1%	48%[activator]
CSCC[C@H](NC(=O)NCc1ccc(F)cc1)C(=O)O	10%	nt
O=C(NCc1ccc(F)cc1)c1c2c(nc3ccccc13)CCC2	5%	-3%
Cc1ccc(-n2nc3c(N4CCC(C(=O)N5CCCCC5)CC4)nnc(C)c3c2C)cc1	-25%	-30%
COc1ccc(C(=O)N/C(=C\c2cn(S(=O)(=O)N(C)C)c3ccccc23)C(=O)NCCCn2ccnc2)cc1	-9%	-3%
NC1=NC(=O)C(Cc2cccc(Cl)c2)S1 (stereo not drawn)	6%	-8%
CCCCC(=O)NCc1ccccc1Cl	-4%	-2%
Cc1cccc(-[n+]2c(-c3cccc(Br)c3)[nH]c3nc4ccccc4nc32)c1	-1%	i
CC(C)(C)C1CCc2c(sc(NC(=O)c3cc(C4CC4)on3)c2C#N)C1 (stereo not drawn)	7%	10%
O=c1[nH]c(=O)n(Cc2ccccc2)c2nc(-c3cccs3)n(CCO)c12	-15%	i
CN(C)c1ccc(-c2ccccc2)nn1	0%	-12%
COCCCN1C(=O)C(CC(=O)NCCN2CCOCC2)CC(C(=O)N(C(C)C)C(C)C)=C1C (stereo not drawn)	-1%	15%
O=C(/C=C/c1ccco1)Nc1ccc(F)cc1	0%	0%
Cc1ccc2cccc(NC(=S)NC(=O)c3ccn(C)n3)c2n1	-10%	-3%
COc1ccccc1NC(=O)C(C)Sc1nnnn1C (stereo not drawn)	-9%	-8%
CCN(CC)CCCN=Cc1c(O)n(-c2cccc(C)c2C)c(=O)[nH]c1=O	2%	nt
CC(Oc1ccc(Br)cc1)C(=O)NNC(=O)CCN1CCN(c2ccccc2)CC1 (stereo not drawn)	?	?
CCNC(=S)NNc1nnc(-c2ccccc2)c(-c2ccccc2)n1	-21%	?
Cc1ccc(S(=O)(=O)N(C)c2ccccc2C(=O)N2CCOCC2)cc1	-12%	-3%

Entries shown so far with a furan ring, fused or not:
SMILES	Vaccinia Venus	Vaccinia mCherry
Cc1ccc2c(CC(=O)N3CCN(S(=O)(=O)c4cccs4)CC3)coc2c1	-15%	nt
c1ccc(Cn2c(-c3ccco3)nc3nc4ccccc4nc32)cc1	-26%	-8%
CCOC(=O)c1ccc(N(CC(=O)NC2CCCCC2)C(=O)CNC(=O)c2ccco2)cc1	-1%	-1%
Nc1nc(N)nc(-c2ccc([N+](=O)[O-])o2)n1	?	-29%
Cc1ccc(NC(=O)c2c(C)oc3ccc(O)c(CN4CCN(Cc5ccccc5)CC4)c23)cc1	0%	-18%
Cc1cccc(C(=O)NNC(=O)c2ccco2)c1O	-18%	?
COCCN(C(=O)COC(=O)c1ccc(C)o1)c1c(N)n(Cc2ccccc2)c(=O)[nH]c1=O	-3%	-13%
O=C(/C=C/c1ccco1)Nc1ccc(F)cc1	0%	0%

Additional entries follow:
SMILES	Vaccinia Venus	Vaccinia mCherry
COc1ccc2c(c1)c1c(c(=O)n(Cc3ccccc3)c(=O)n1Cc1ccccc1Cl)n2C	4%	0%
O=C(/C=C/NNC(=O)c1ccccc1)c1ccc(Br)cc1	1%	-15%
CCCCN1C(N)=NC[C@@H]1CCCCN	-15%	i
CCOc1ccccc1NC(=O)c1cccc(NC(=O)C2CCCC2)c1	-13%	-20%
COc1ccc(C2CCCCCN2Cc2nc3ccccc3c(=O)n2CC(N)=O)cc1 (stereo not drawn)	1%	i
COc1ccc(NC(=O)CSc2ccc3nc(-c4ccccc4)cn3n2)cc1OC	-12%	-11%
Cn1c(=O)c2c(SCc3ccccn3)nc(C3CC3)nc2n(C)c1=O	?	?
C[C@H](CO)N1C[C@H](C)[C@@H](CN(C)S(=O)(=O)c2cccs2)Oc2ccc(NC(=O)C3CC3)cc2C1=O	-6%	i
Fc1ccc(-n2cc(-c3ccccc3)c3c(NN4CCOCC4)ncnc32)cc1	-19%	?
Cc1ccc(-n2ncc3c(=O)[nH]c(SCC(=O)N4CC(=O)Nc5ccccc54)nc32)cc1	-4%	-16%
O=C(c1ccc(F)cc1)C1CCN(C(=O)c2c(F)cccc2F)CC1	-2%	i
N#Cc1ccccc1Cn1c(SCC(=O)NCc2ccccc2)nc2ccccc21	4%	-17%
CC1(c2cccc(N)c2)OCCO1	-16%	i
COc1ccc2cc3cc(C(=O)NCc4cccs4)oc3nc2c1	-18%	-19%
Cc1ccc2c3c1C(=O)C(=O)N3C(C)(C)CC2C (stereo not drawn)	0%	-14%
CCc1noc(C)c1C(=O)OCC(=O)N(C)c1c(N)n(Cc2ccccc2)c(=O)[nH]c1=O	-13%	i
CN1C(=O)c2ccccc2Sc2ccc(NC(=O)Nc3ccccc3F)cc21	-14%	-14%
CC1=C(c2ccc(C)c(C)c2)S(=O)(=O)N=C1N1CCC(C(=O)NC(C)c2ccccc2)CC1 (stereo not drawn)	-22%	-17%
C[C@H]1CN([C@@H](C)CO)C(=O)CCCn2nncc2CO[C@H]1CN(C)C(=O)Oc1ccccc1	-3%	-22%
Cc1ccc(NC(=O)c2nc[nH]c2C(=O)NC2CCN(C(=O)OC(C)(C)C)CC2)cc1	?	-11%
COc1cc(C#CC#CCN2CCCCC2)ccc1O	-17%	?
CNc1nc(-c2ccccc2Cl)nc2ccccc12	-2%	1%
Cn1c(CC(=O)Nc2ccccc2)nnc1SCCOc1ccccc1	-14%	nt
CCS(=O)(=O)N1CCC(C(=O)NCCCN2CCCCCC2)CC1	-14%	i
